Beta cell apopt = blocks beta cell apoptosis; INS-1E cytokine-induced death, ATP luminescence, 48 h; percent of positive-control rescue, neutral wells zero; protection from apoptosis, % (test concentration not listed); actives 0.8% (n = 300,000);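 active means all replicates at 75% or more, or half of them and the mean; inconclusive means half reach 75% but not the mean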;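 further: 0% = cytokine-treated negative control wells and 100% = positive control rescue; higher means more ATP so stronger rescue from cytokine killing; wells of about 40 µL received 100 nL stock; the first replicate is given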
RanGTP-Impb inh = inhibitors of RanGTP-importin-beta interaction, primary screen, biochemical, FRET, CFP-Ran, YFP-importin-beta, homogeneous. cell-free CFP-Ran/YFP-importin-beta FRET ratio. inhibition, % (concentration not given with the values). actives 1.1% (n = 300,000). AID 2216;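 active means most replicates above 15%; inconclusive means exactly half above 15%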;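 further: 0% = DMSO wells and 100% = Ran loaded with GDP instead of GTP; wells of about 40 µL received 100 nL stock; the first replicate is given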
Calb FLC = affects C. albicans growth with fluconazole. C. albicans CaCi-2 (fluconazole-resistant clinical isolate) + fluconazole, Alamar Blue growth, 48 h. growth inhibition, % (test concentration not listed). actives 0.57% (n = 300,000). AID 1979;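 active means most replicates above 75%; inconclusive means exactly half above 75%; inactive means most below 75%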;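 further: all wells also contain fluconazole at 8 µg/ml as a sub-toxic cotreatment; 0% = median of DMSO wells and 100% = median of geldanamycin control wells; wells of about 8 µL received 7.5 nL stock; the first replicate is given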
Ecoli rRNA inh = selective bacterial rRNA inhibition in E. coli. actives 1.6% (n = 350,000). E. coli WT GFP vs humanized-ribosome RFP mutants, fluorescence, 24 h; hits give low values; DMSO median 0, no signal -100. GFP signal change (wild-type ribosome), % (no concentration beside the values). AID 720706;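 active means significant combined selectivity score with lowered wild-type GFP, culture density cut under 30%, mutant RFP and density less affected; inactive means any of these conditions unmet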; further: one replicate is shown; some compounds called inactive have numbers as strong as hits
T cruzi inh = T. cruzi replication inhibition | T. cruzi beta-gal in NIH3T3, luminescence, 90 h | inhibition, % (test concentration not listed) | actives 1.4% (n = 300,000) | AID 1885;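 active means mean inhibition across valid replicates above about 55%, limit read from the data; inconclusive means mean below that limit but half or more replicates reach it; inactive means mean below it, under half of replicates reach it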;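 further: signal also drops with host cell toxicity which is not excluded here; 0% = plate median of DMSO wells and 100% = zero luminescence signal; higher percent means less beta-gal luminescence so fewer parasites; stock transfer was 50 nL into about 50 µL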
AF4-AF9 inh = MLL-AF4/AF9 protein interaction inhibition | AlphaScreen, biotin-AF4 peptide binding to FLAG-AF9 | P42568 | actives 0.47% (n = 350,000) | inhibition, % at 10 µM | AID 651704;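 active means every replicate reaching a set inhibition limit, whatever the replicate mean, cut at about 25% in these data; inconclusive means mean inhibition reaches that limit but some replicates miss it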;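 further: 0% = plate neutral control median and 100% = total signal loss; the record names both 10 and 1 µM as test concentration; the first replicate is given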
Target sequence (P42568 whole entry, looked up): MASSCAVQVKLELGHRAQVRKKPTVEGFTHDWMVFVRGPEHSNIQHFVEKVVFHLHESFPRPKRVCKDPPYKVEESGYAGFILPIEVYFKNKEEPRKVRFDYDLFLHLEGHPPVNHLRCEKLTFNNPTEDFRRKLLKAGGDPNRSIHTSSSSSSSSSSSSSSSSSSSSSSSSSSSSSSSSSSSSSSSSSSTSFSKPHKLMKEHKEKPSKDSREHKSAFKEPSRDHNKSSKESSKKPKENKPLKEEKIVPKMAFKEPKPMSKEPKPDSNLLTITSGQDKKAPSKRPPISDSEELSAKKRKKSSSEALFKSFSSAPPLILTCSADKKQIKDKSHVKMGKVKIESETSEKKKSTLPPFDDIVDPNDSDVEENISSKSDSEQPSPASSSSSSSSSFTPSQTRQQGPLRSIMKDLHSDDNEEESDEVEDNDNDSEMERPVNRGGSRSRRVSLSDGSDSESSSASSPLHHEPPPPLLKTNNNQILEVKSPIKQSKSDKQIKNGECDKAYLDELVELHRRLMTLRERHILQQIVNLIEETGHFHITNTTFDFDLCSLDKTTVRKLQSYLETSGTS
ALR inh = human ALR oxidase inhibition via reduced H2O2; purified ALR, DTT oxidation, H2O2 HRP-luminol luminescence; AID 485317; actives 3.8% (n = 290,000); inhibition, % (test concentration not listed);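 active means mean and each replicate at 75% or more; inconclusive means only one of the two met; inactive means neither met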;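 further: stock transfer was 7.5 nL into about 7.5 µL; 0% = neutral wells and 100% = wells with inactivated enzyme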
Target sequence (P55789 whole entry, looked up): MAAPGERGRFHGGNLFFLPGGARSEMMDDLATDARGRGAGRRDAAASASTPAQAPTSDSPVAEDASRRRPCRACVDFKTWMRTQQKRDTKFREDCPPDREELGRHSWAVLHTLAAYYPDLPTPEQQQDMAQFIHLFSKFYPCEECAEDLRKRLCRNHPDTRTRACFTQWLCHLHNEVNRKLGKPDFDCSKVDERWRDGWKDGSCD
FGF22 binding = binders of recombinant human FGF22 by thermal shift. Q9HCT0. SYPRO orange fluorescence; percent of sucrose octasulfate shift, DMSO zero. calls only at 9.99 µM. actives 1.5% (n = 340,000). AID 651658;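 active means melting point raised past a set limit in the mean and every replicate; inconclusive means no clear call; three in four hits are not shown here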
Target sequence (Q9HCT0 whole entry, looked up): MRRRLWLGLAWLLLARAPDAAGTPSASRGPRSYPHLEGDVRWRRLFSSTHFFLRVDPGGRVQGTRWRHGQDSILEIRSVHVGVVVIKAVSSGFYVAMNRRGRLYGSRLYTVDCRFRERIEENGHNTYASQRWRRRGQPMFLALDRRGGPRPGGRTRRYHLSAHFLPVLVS
Ecoli rRNA inh OD600 = further read-out of Ecoli rRNA inh, marked with its call; OD600 change, %; measured here: OD600 growth;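 optical density of the mix in the first replicate; 0 = DMSO median and -100 = no signal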
Ecoli rRNA inh RFP = further read-out of Ecoli rRNA inh, marked with its call; RFP signal change, %; measured here: RFP humanized mutant strains;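 first replicate; 0 = DMSO median and -100 = no signal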
The depositor's hits bear a star; i = inactive; ? = inconclusive; nt = not tested or not shown; + = active, no number.

SMILES | Beta cell apopt | RanGTP-Impb inh | Calb FLC | Ecoli rRNA inh | Ecoli rRNA inh OD600 | Ecoli rRNA inh RFP | T cruzi inh | AF4-AF9 inh | ALR inh | FGF22 binding
Cc1cc(C)nc(SCc2cc(=O)c(OC(=O)c3cc([N+](=O)[O-])ccc3Cl)co2)n1 | 4 | -2.3 | -8 | nt | nt | nt | -4 | nt | 94* | nt
CC(CNC(=O)CN1C(=O)C(=O)N(C2CCCC2)C1=O)c1ccccc1 (centres undefined) | -6 | nt | nt | 4 | -8 | -3.8 | nt | -2.0 | 0 | i
Cc1ccccc1CC(=O)Nc1ccc(S(=O)(=O)N2CCOCC2)cc1 | -6 | nt | nt | -3 | 1 | 0.7 | -10 | 4.5 | 0 | i
COc1cc2c(cc1OC)CN(C(=O)CN1C(=O)NC3(CCC(C)CC3)C1=O)CC2 (centres undefined) | 2 | nt | nt | 2 | 9 | -5.8 | nt | -1.9 | -4 | i
CC(C)(C)OC(=O)C[C@@H]1C/C=C\C[C@@H](CC(=O)N[C@H](CO)Cc2ccccc2)C(=O)NC[C@H](c2ccccc2)OC1=O | 8 | nt | nt | 4 | 13 | 1.2 | nt | nt | -5 | i
COc1cc(OC)cc(C(=O)NCC(=O)OCC(=O)Nc2cc(S(C)(=O)=O)ccc2Cl)c1 | 0 | 0.8 | 0 | 2 | -4 | -1.2 | 13 | -13 | nt | i
CCCCCCCCCC(=O)N1CCN(c2cc3c(cc2F)c(=O)c(C(=O)O)cn3CC)CC1 | -6 | -2.2 | 0 | -32 | -70 | 12 | -12 | 3.4 | -30 | i
COc1cccc(NC(=O)c2ccc(C(=O)c3ccccc3)o2)c1 | -16 | -2.6 | -3 | -33* | -5.5* | -4.9* | -6 | -0.7 | nt | i
O=C(/C=C/c1cccc(Cl)c1)NCCN1CCOCC1 | -5 | ? | 6 | nt | nt | nt | -1 | nt | -2 | nt
O=C(OCc1nc2ccccc2[nH]1)C1CCCCC1 | 0 | nt | nt | 6 | 7 | 0.2 | -17 | -3.0 | 0 | i
OCc1ccnc2c(O)cccc12 | 12 | -0.8 | 107* | nt | nt | nt | 57* | nt | -20 | nt
CN(Cc1ccco1)C(=O)c1ccc(N2CCCC2=O)cc1 | -12 | 5.4 | 6 | nt | nt | nt | -3 | nt | nt | nt
CCN(CC)S(=O)(=O)c1cccc(NC(=O)CNC2CCCCCC2)c1 | -2 | 4.2 | -3 | 2 | -3 | -11 | 15 | 5.7 | -3 | nt
Fc1ccc(-c2nc3cnccn3c2NC2CCCC2)cc1 | 7 | -0.7 | -23 | -22 | -30 | -3.0 | 1 | -10 | 99* | i
CN1CCN(c2ccc(C(=O)c3ccccc3)cc2[N+](=O)[O-])CC1 | -6 | 0.5 | 10 | nt | nt | nt | 56* | nt | -19 | nt
C/C=C/c1ccc(OCCCNC2CCCC2)c(OC)c1 | 5 | 5.0 | -1 | nt | nt | nt | 48 | nt | -8 | nt
CCn1c(C(C)NC(=O)c2cccc(C)c2)nc2ccccc21 (centres undefined) | -1 | 0.0 | -16 | 0 | -6 | -0.3 | -11 | -5.9 | -8 | i
CCOc1ccc(N=C2NC(=O)C(CC(=O)O)S2)cc1 (centres undefined) | 1 | 2.3 | -9 | nt | nt | nt | -12 | nt | -21 | nt
O=C(C1CCN(C2CC(=O)N(c3ccc(Cl)cc3)C2=O)CC1)N1CCOCC1 (centres undefined) | -2 | 1.7 | -2 | nt | nt | nt | -2 | nt | nt | nt
COC(=O)CCCC(=O)N1CCC(CCC(=O)NCc2ccc(F)cc2)CC1 | -3 | 2.6 | 0 | -2 | 10 | -3.5 | -9 | -1.3 | nt | i
CC(C)OCCCNC(=O)c1ccc2c(=O)n(Cc3ccc4c(c3)OCO4)c(=S)[nH]c2c1 | 5 | 1.5 | 0 | 11 | 17 | 1.1 | 7 | 0.1 | -3 | nt
O=C(CSc1c(F)c(F)cc(F)c1F)Nc1ccc(C2SCCS2)cc1 | -3 | -0.2 | -11 | 14 | 8 | 2.7 | -20 | -10 | 0 | i
CCOC(=O)c1c(-c2ccccc2)oc2ccc(OCC(=O)NN)cc12 | -2 | -3.9 | -1 | -9 | -10 | 0.2 | -11 | -0.9 | -1 | i
CNC(=O)CCC(=O)Nc1ccc(C)cc1 | 0 | 8.4 | -5 | 1 | 1 | -0.2 | -21 | -1.9 | -26 | i
COc1cc(C=Nc2cccc(C)c2)c(O)c([N+](=O)[O-])c1 | 0 | -4.3 | -7 | 13 | 11 | 5.8 | 47 | 1.4 | -5 | i
CCOc1ccccc1NC(=S)NC(=O)C1CC1 | nt | -2.3 | 3 | 2 | 2 | -2.4 | -9 | 0.7 | 3 | i
CC[C@H](C)/C=C(C)/C=C/C1=CC2=CC(=O)[C@]3(C)OC(=O)[C@@H](C(C)=O)[C@@H]3C2=CO1 | -2 | 55* | 0 | 12 | 16 | 11 | 7 | 3.7 | 6 | i
COCc1cc(C)nc(SCC(=O)Nc2ccc(C)c(C)c2)c1C#N | -6 | -3.8 | -1 | nt | nt | nt | 3 | nt | -13 | nt
CCCSC1=C(C#N)C(c2cc(OC)ccc2OC)CC(=O)N1 (centres undefined) | -12 | -0.8 | 4 | -4 | -3 | -1.5 | -1 | 6.8 | 8 | i
Cc1ccc(NC(=O)c2cc(N3C(=O)C=CC3=O)ccc2N2CCOCC2)cc1 | nt | 6.6 | 11 | 23 | -2 | 3.4 | 59* | 2.7 | nt | i

Part of the list above, limited to Ecoli rRNA inh, FGF22 binding and ALR inh.
SMILES	Ecoli rRNA inh	FGF22 binding	ALR inh
COC(=O)CCCC(=O)N1CCC(CCC(=O)NCc2ccc(F)cc2)CC1	-2	i	nt
CC(C)OCCCNC(=O)c1ccc2c(=O)n(Cc3ccc4c(c3)OCO4)c(=S)[nH]c2c1	11	nt	-3
O=C(CSc1c(F)c(F)cc(F)c1F)Nc1ccc(C2SCCS2)cc1	14	i	0
CCOC(=O)c1c(-c2ccccc2)oc2ccc(OCC(=O)NN)cc12	-9	i	-1
CNC(=O)CCC(=O)Nc1ccc(C)cc1	1	i	-26

Part of the list above in order of length of the SMILES, lowest first:
SMILES | Beta cell apopt | RanGTP-Impb inh | Calb FLC | Ecoli rRNA inh | Ecoli rRNA inh OD600 | Ecoli rRNA inh RFP | T cruzi inh | AF4-AF9 inh | ALR inh | FGF22 binding
CCOc1ccc(N=C2NC(=O)C(CC(=O)O)S2)cc1 (centres undefined) | 1 | 2.3 | -9 | nt | nt | nt | -12 | nt | -21 | nt
COc1cc(C=Nc2cccc(C)c2)c(O)c([N+](=O)[O-])c1 | 0 | -4.3 | -7 | 13 | 11 | 5.8 | 47 | 1.4 | -5 | i
COC(=O)CCCC(=O)N1CCC(CCC(=O)NCc2ccc(F)cc2)CC1 | -3 | 2.6 | 0 | -2 | 10 | -3.5 | -9 | -1.3 | nt | i

New compounds follow
SMILES | Beta cell apopt | RanGTP-Impb inh | Calb FLC | Ecoli rRNA inh | Ecoli rRNA inh OD600 | Ecoli rRNA inh RFP | T cruzi inh | AF4-AF9 inh | ALR inh | FGF22 binding
O=C1CCCC(O)=C1N=Nc1c(Cl)cc(C(F)(F)F)cc1Cl | -7 | -2.9 | 4 | 8 | 11 | 6.3 | -8 | nt | 1 | i
CC(OC(=O)CCCN=C1NS(=O)(=O)c2ccccc21)C(=O)Nc1ccccc1F (centres undefined) | -3 | -1.6 | 0 | 5 | -1 | -0.5 | -6 | -0.9 | -1 | nt
COc1ccc(C2CC(=O)N(CC(=O)NCC3CCCO3)c3ccccc3S2)cc1OC (centres undefined) | 0 | 1.7 | -1 | 10 | 10 | 3.0 | -10 | -0.3 | -4 | i
O=C1NC2c3ccccc3C(=O)N2c2c1cnn2-c1ccccc1 (centres undefined) | -4 | -0.1 | -11 | nt | nt | nt | -15 | nt | 61 | nt
Cc1ccc(O)c(C(=O)c2cc(C#N)c(=O)n(Cc3ccccc3)c2)c1 | 17 | 0.7 | 4 | -14 | -26 | -4.5 | -1 | 7.1 | -7 | i
N#CC1=C(SCC(=O)NC23CC4CC(CC(C4)C2)C3)NC(=O)C(C#N)C12CCCCC2 (centres undefined) | 46 | -2.8 | 15 | -14 | -19 | 30 | -3 | -5.2 | 13 | +
CC(C)Oc1ccc(S(=O)(=O)N2CCOCC2)cc1NC(=O)Cc1c(F)cccc1Cl | 5 | 4.3 | -2 | -6 | -12 | -0.1 | 15 | -0.4 | -6 | i
CC(C)C[C@@]12C(=O)N(c3cccc(Cl)c3)C(=O)N1[C@H](c1ccc(F)cc1)[C@@H]1C(=O)N(C3CCCCC3)C(=O)[C@@H]12 | 13 | 4.7 | 12 | 15 | 9 | 4.4 | 9 | -0.5 | -9 | i
CCOc1ccc(OCc2ccc(C(=O)N(CC)CC)cc2)cc1 | 2 | 21* | 45 | -19 | -19 | 2.8 | -13 | 0.3 | -3 | i
O=C(Nc1ccccc1)C1Cc2ccccc2CN1C(=O)c1ccco1 (centres undefined) | -3 | 1.8 | 0 | nt | nt | nt | 4 | nt | 97* | nt
Cc1cc(Cl)ccc1OCC(=O)N1C(C)CCCC1C (centres undefined) | -5 | 2.1 | -26 | nt | nt | nt | 2 | nt | 0 | nt
C=CCn1c(SCC(=O)NCC2CCCO2)nc2scc(-c3ccccc3)c2c1=O (centres undefined) | nt | -2.4 | 14 | 6 | 2 | 2.5 | 9 | 1.6 | 3 | i
NC(N)=NS(=O)(=O)c1ccc(NC(=S)NC(=O)c2ccncc2)cc1 | 1 | -0.6 | 9 | 4 | -2 | -2.2 | -5 | 0.2 | 29 | i
COc1ccc(CCC(=O)Nc2ccc(C(=O)c3ccncc3)cc2)cc1 | nt | 2.0 | -3 | -5 | 0 | 1.5 | -8 | 0.3 | -1 | i
CCCC(=O)NC(c1ccc(C(C)C)cc1)c1ccc2cccnc2c1O (centres undefined) | nt | -1.6 | 89* | 4 | 1 | -0.3 | 57* | -1.4 | -19 | i
CC(=O)C1=C(O)C(=O)N(c2ccccn2)C1c1ccc(Cl)cc1 (centres undefined) | -6 | 3.2 | 27 | 2 | -11 | -0.9 | -11 | 0.3 | -2 | i
CC(OC(=O)CNC(=O)c1ccco1)C(=O)Nc1ccc(Cl)cn1 (centres undefined) | -9 | 0.3 | 4 | 6 | 4 | -2.2 | -4 | -2.4 | -1 | i
Cc1cc(C)n2nc(C(=O)N/N=C/c3ccccc3C)nc2n1 | -2 | 5.4 | -4 | 2 | 4 | -2.0 | -21 | -5.6 | -2 | i
CNc1cccc2c1C(=O)c1ccccc1C2=O | -1 | -4.6 | -4 | -4 | -3 | 16 | 13 | 6.3 | -8 | i

An excerpt. The share of hits here may be higher or lower than overall.
